Bioassay records as filed in PubChem.
PrP 5UTR inh: suppresses PrP 5' UTR mRNA reporter expression. cell-based PrP 5' UTR mRNA reporter, plate reader. inhibition, % (concentration not given with the values). 0.35% of 340,000 active;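 active means every replicate at 50% or more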;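 further: 0 = median of the neutral control wells; tested in H4 reporter cells; numbers are from one replicate; inactives centre near -14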
Bead autofluor: flagged as autofluorescent in microsphere protease counterscreen; compound autofluorescence counterscreen, microsphere flow cytometry; hits give high values; fluorescence intensity (test concentration not listed); 3.1% of 360,000 active;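 active means at least 3 SD above the mean of all compounds, about 16000 in these data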;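 further: 100 nL of 1 mM stock went into each well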
Sa ugtP lethal: kills S. aureus RN4220 lacking UgtP; S. aureus RN4220 ugtP deletion, OD600 growth, 16 h; some inactives read as strong as hits; growth inhibition, % (no concentration beside the values); 0.54% of 330,000 active;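 active means z-score under -3 and OD600 up to 0.15 on both plates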;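 further: plate controls were untreated wells for no effect and antibiotic for full effect; wells of about 80 µL received 100 nL stock; the first replicate is given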
BJeLR viability: BJeLR cell viability loss; inhibition, % (no concentration beside the values); 0.17% of 300,000 active; AID 1554; BJeLR (HRASV12) viability, CellTiter-Glo ATP luminescence, 48 h; reference of the scale not given here;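 active means replicate mean above 50%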;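 further: 50 nL library stock added to about 25 µL; numbers are from one replicate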
Mtb hypoxia rep: reduces hypoxia-regulated biosensor signal in M. tuberculosis; 0.1% of 300,000 active; M. tuberculosis hypoxia-regulated fluorescent reporter, fluorescence; fluorescence inhibition, % (no concentration beside the values);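 active means 35 to 45% if threefold the growth effect, above 45% if 1.5-fold the growth effect; inactive means the rest, general growth blockers included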;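 further: wells of about 50 µL received 100 nL stock; 0% = vehicle wells and 100% = reference inhibitor wells; whole bacteria with a GFP reporter of the hypoxia response; strong numbers were not always called active; many hits fall short of the cut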
RN4220 kill: kills Staphylococcus aureus RN4220 | inhibition, % (concentration not given with the values) | 0.33% of 330,000 active | AID 1259311 | S. aureus RN4220 growth, OD600, 16 h;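 active means z-score of -3 or lower and OD600 up to 0.18 on both plates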;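 further: plate controls were untreated cells for no effect and reference antibiotic for full effect; stock transfer was 100 nL into about 80 µL; one replicate is shown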
Mtb hypoxia rep growth: second read-out of Mtb hypoxia rep, no call of its own (marks repeat the call); growth inhibition, %; measured here: M. tuberculosis growth (absorbance);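 0% = vehicle and 100% = reference antibiotic; read after six days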
* marks the source's active call; other numbers are inactive results; . = not tested or not shown.

SMILES | PrP 5UTR inh | Bead autofluor | Sa ugtP lethal | BJeLR viability | Mtb hypoxia rep | Mtb hypoxia rep growth | RN4220 kill
CC1=C(C(=O)Nc2ccccc2)C(c2ccco2)C(C#N)=C(SCC(N)=O)N1 (stereo not drawn) | -8 | 10472 | -2 | -1 | 9 | 8 | 1.6
Cc1nc2c(C)cccn2c1/C(O)=C1\C(=O)C(=O)N(CCN2CCOCC2)C1c1ccncc1 (stereo not drawn) | -20 | 3230 | . | 11 | . | . | .
CCOC(=O)N1CCc2c(sc(NC(=O)c3ccc(S(=O)(=O)N4CCCC4)cc3)c2C#N)C1 | -12 | 5830 | 0 | 6 | 4 | 3 | -13
CC(C)(C)C(=O)N1CCc2cc(-c3csc(N)n3)ccc21 | 34 | 3543 | 1 | -3 | 9 | -2 | 1.9
CC(NC(=O)c1cccnc1)C(c1cccs1)N1CCN(C)CC1 (stereo not drawn) | 28 | 4766 | -2 | -3 | 12 | 10 | -8.8
O=C(c1c[nH]c2ccccc12)C(O)C(c1ccccc1)N1CCOCC1 (stereo not drawn) | -8 | 2332 | -9 | 15 | . | . | -7.0
N#Cc1cccc(CSc2ncnc(N)n2)c1 | -18 | 3984 | 6 | 8 | 1 | -7 | 1.3
O=C(Nc1ccc(Cl)cn1)c1cccc(S(=O)(=O)N2CCCC2)c1 | -9 | 3235 | 10 | -6 | 10 | 4 | 3.7
Cc1c(C)c2ccc(OC(C)C(=O)NCCCn3ccnc3)c(C)c2oc1=O (stereo not drawn) | -16 | 4328 | 2 | 9 | 15 | 4 | 1.8
CN(C)c1cc2c(cc1NC(=O)c1ccccc1Cl)n(C)c(=O)n2C | -22 | 3793 | 13 | -18 | 14 | 10 | 4.0
CCOC(=O)c1[nH]c(C)c(C(=O)NC(C)(C)C)c1C | -11 | 3236 | 2 | -3 | -4 | -8 | -12
CC(C)NC(=O)c1cc(-c2cccs2)on1 | -88 | 9763 | -4 | -3 | 13 | 7 | 1.5
CCOc1ccc2[nH]c(=O)c(CN(CCO)C(c3nnnn3C3CCCCC3)C(C)C)cc2c1 (stereo not drawn) | -10 | 2667 | . | -2 | . | . | .
CC(=NNC(=O)c1cnccn1)c1ccc([N+](=O)[O-])cc1 | . | . | 5 | . | -3 | 2 | 3.2
COc1cccc(CN(C)C(=O)c2ccccc2Sc2ccccc2C#N)c1 | 0 | 4106 | 4 | -12 | 6 | 5 | 9.6
CC(C)(C)OC(=O)NCCC(=O)NN=Cc1cccc2nccnc12 | . | . | 7 | . | 0 | 5 | 1.9
CS(=O)(=O)N1CCN(c2ccccc2F)CC1 | 0 | 8988 | -3 | -4 | 4 | 9 | 2.9
Cc1nn(-c2ccc(F)cc2)c(-n2cccc2)c1C(=O)N1CCN(C(=O)c2ccco2)CC1 | -13 | 5402 | -1 | -1 | -8 | 2 | -0.4
COCc1cc(C)nc(SCc2ccc([N+](=O)[O-])cc2)c1C#N | -25 | 3974 | -1 | -5 | -1 | 5 | -0.4
Cc1cc(C(=O)N/N=C2\CCCc3ccccc32)c(C)o1 | -35 | 2545 | . | 2 | . | . | .
N#C/C(=C\c1ccccn1)c1nc2ccccc2s1 | -53 | 3710 | 40 | -3 | 4 | 3 | 28
Cc1ccc(C(=O)COC(=O)c2ccc(-c3cnc4ccccc4n3)cc2)cc1C | -24 | 10594 | -6 | 28 | 10 | 5 | 4.0
N#CC(C#N)=Cc1ccc(OC(=O)c2ccccn2)cc1 | -22 | 2255 | -1 | 14 | 10 | 2 | 8.9
Cc1ccc(CNCc2ccc3c(c2)OCO3)cc1 | -10 | 3502 | 17 | -6 | 13 | 10 | 3.2
COc1ccc(CN2CCN(C(=O)Cn3nc(C(=O)O)c4ccccc4c3=O)CC2)cc1F | -4 | 5221 | . | -6 | . | . | .
SMILES | PrP 5UTR inh | Bead autofluor | Sa ugtP lethal | BJeLR viability | Mtb hypoxia rep | Mtb hypoxia rep growth | RN4220 kill
O=C1Nc2ccccc2C1=Nc1cccc([N+](=O)[O-])c1 | -28 | 4026 | -2 | -1 | 13 | 0 | 1.3
Cn1c(CC(=O)Nc2ccc(Cl)c(Cl)c2)nnc1SCC(=O)N1CCN(c2ccccc2)CC1 | -27 | 11683 | -19 | -30 | -7 | 2 | 3.5
Cc1cc(Cl)c2oc(C(=O)N(C)Cc3nccn3C)c(C)c2c1 | -25 | 5039 | . | 0 | . | . | .
COc1cc(/C=N\NC(=O)c2sc(N)nc2C)cc(OC)c1OC | -7 | 3443 | . | 6 | . | . | .
CCCCCCC(=O)c1c(O)n(-c2ccccc2OC)c(=O)[nH]c1=O | 1 | 2468 | 0 | -1 | -10 | 7 | 5.4
COc1ccc(NS(=O)(=O)c2ccc(Oc3ncccn3)cc2)cc1 | -1 | 2437 | 6 | 0 | 5 | 1 | -1.2
CC(Sc1nc2ncc(Cl)cc2[nH]1)C(=O)c1c(N)n(C)c(=O)n(C)c1=O (stereo not drawn) | -11 | 6186 | -1 | 0 | 8 | 1 | 3.7
Cc1ccc(-c2nc(CS(=O)(=O)CC(=O)N3CC(C)CC(C)C3)c(C)o2)cc1 (stereo not drawn) | -11 | 5454 | -5 | 1 | 5 | 16 | -10
CCc1cc(Cn2nc(C(=O)O)cc2-c2ccccc2)on1 | -19 | 4126 | -2 | 4 | 11 | 7 | 4.7
CC(=O)N1CCCc2cc(S(=O)(=O)N3CCc4ccccc4C3)ccc21 | -6 | 3460 | -1 | -3 | . | . | 15
Nc1ccccc1Nc1ccc([N+](=O)[O-])cc1[N+](=O)[O-] | -4 | 2488 | 5 | 13 | 5 | -2 | 6.7
O=C(Nc1ccccc1C(=O)O)c1cc(S(=O)(=O)N2CCCCCC2)ccc1Cl | -11 | 3038 | 0 | -18 | 3 | 1 | 9.3
CC1(C(=O)OCC(=O)Nc2ccccc2Cl)CC1(Cl)Cl (stereo not drawn) | -7 | 1939 | -2 | -6 | 4 | 3 | 10
Cc1ccccc1NC(=O)NC1(C(=O)NCc2ccco2)CCCCC1 | -34 | 3045 | 5 | -9 | 7 | 1 | 0.7
Cc1cc(C)c2c(=O)c3c(oc2c1)C(=O)N(CCO)C3c1cccc(O)c1 (stereo not drawn) | -7 | 6330 | 4 | -7 | -7 | -1 | 1.3
CCCS(=O)(=O)N1CCN=C1SCc1ccc(C)cc1 | -4 | 2159 | 5 | 3 | 1 | -4 | 3.1
Cc1cc(C(=O)Nc2c(C)n(C)n(-c3ccccc3)c2=O)on1 | -19 | 6522 | -1 | -10 | -9 | 2 | 4.4
CSc1ccc(NC(=O)Nc2cccn(Cc3ccccc3)c2=O)cc1 | -20 | 5432 | 7 | 8 | 3 | 1 | -13
CCc1cc(C(=O)OC)c(NC(=O)CC2Sc3ccc(C(F)(F)F)cc3NC2=O)s1 (stereo not drawn) | 7 | 10351 | -2 | 1 | 6 | 1 | 8.9
COCCOC(=O)c1[nH]c2c(c1C)C(=O)CC(c1cc(OC)ccc1OC)C2 (stereo not drawn) | -6 | 5607 | 14 | 5 | . | . | 1.7
CN1CCN(C(=O)c2ccc(S(=O)(=O)c3ccc(Br)cc3)cc2)CC1 | -23 | 4296 | 4 | 3 | . | . | 1.2
N#Cc1ccccc1CSc1nc2ccc(NC(=O)c3ccccc3C(=O)O)cc2s1 | -45 | 3811 | -2 | 1 | -1 | 13 | 6.8
COCC(=O)N(Cc1cc2ccc(C)cc2[nH]c1=O)c1ccc(C)cc1C | -11 | 3899 | 3 | -5 | 10 | -3 | 6.7
CCOc1ccccc1NC1=C(Cl)C(=O)N(c2ccc(OC)cc2)C1=O | -4 | 2002 | 3 | 5 | 4 | 2 | 5.1
COc1cc(C)c(NC(=O)COc2ccc3c(c2)OCO3)cc1C | -41 | 3373 | 9 | 3 | 4 | 8 | 1.8

Compound profiles, from the list above. Screens in order: PrP 5UTR inh | Bead autofluor | Sa ugtP lethal | BJeLR viability | Mtb hypoxia rep | Mtb hypoxia rep growth | RN4220 kill
CCc1cc(C(=O)OC)c(NC(=O)CC2Sc3ccc(C(F)(F)F)cc3NC2=O)s1 (stereo not drawn) as listed: 7 | 10351 | -2 | 1 | 6 | 1 | 8.9
COc1ccc(NS(=O)(=O)c2ccc(Oc3ncccn3)cc2)cc1 as listed: -1 | 2437 | 6 | 0 | 5 | 1 | -1.2
N#Cc1ccccc1CSc1nc2ccc(NC(=O)c3ccccc3C(=O)O)cc2s1 as listed: -45 | 3811 | -2 | 1 | -1 | 13 | 6.8
CCCS(=O)(=O)N1CCN=C1SCc1ccc(C)cc1 as listed: -4 | 2159 | 5 | 3 | 1 | -4 | 3.1
Cc1ccc(-c2nc(CS(=O)(=O)CC(=O)N3CC(C)CC(C)C3)c(C)o2)cc1 (stereo not drawn) as listed: -11 | 5454 | -5 | 1 | 5 | 16 | -10

Following part:
SMILES | PrP 5UTR inh | Bead autofluor | Sa ugtP lethal | BJeLR viability | Mtb hypoxia rep | Mtb hypoxia rep growth | RN4220 kill
O=C(O)c1sc2cc(C(F)(F)F)cnc2c1-c1cccs1 | 1 | 3349 | 2 | 1 | 8 | 4 | 4.2
CN(CC(=O)Nc1ccc(F)cc1)C(=O)COC(=O)c1cc([N+](=O)[O-])ccc1N1CCOCC1 | 0 | 5301 | 3 | 3 | 0 | 4 | 1.5
Cc1ccc(-c2c(C(=O)N/N=C/c3c[nH]c4ccccc34)nnn2-c2nonc2N)cc1 | 1 | 4695 | . | 4 | . | . | .
CCN(Cc1ccc2c(c1)OCO2)C(=O)CSc1nc(C)nc2sc(C)c(C)c12 | -6 | 3767 | 1 | . | -3 | 3 | 1.2
Cc1ccc(N2CCN(c3ccc(C)cc3)C2c2ccccn2)cc1 | -26 | 12698 | -3 | -1 | 4 | 3 | 1.1
CCN(CC)C(=O)CSC(Nc1ccc(F)cc1)=C(C#N)C#N | -24 | . | 4 | -6 | -1 | 2 | 6.3
CC1=NN(c2ccccc2)C(=O)/C1=C\c1cc(C)n(C)c1C | -28 | 4099 | 18 | -1 | -4 | -4 | 2.8
O=C(O)C1CCC(C(=O)O)O1 (stereo not drawn) | -18 | 3268 | 8 | . | 21 | 8 | 2.7
O=C(Nc1nc(COc2ccccc2)cs1)C1CCC1 | -79 | 4378 | -1 | 4 | -3 | 13 | -0.9
COC(=O)CN1C2(C#N)CCCCC2CC2CCCCC21C#N (stereo not drawn) | -5 | 4198 | 13 | -2 | . | . | 0.7
Cc1cc(C(=O)NN=C/C=C/c2ccccc2)n[nH]1 | . | . | -7 | . | -9 | 9 | -2.1
CCc1nc(CN(C)C(=O)C2CCC(=O)N(CCc3cccc(F)c3)C2)no1 (stereo not drawn) | -20 | 5688 | 4 | -1 | 5 | -2 | 3.5
O=[N+]([O-])c1cc2c(cc1C=Nn1cnnc1)OCO2 | . | . | 11 | . | 0 | 10 | 9.1
CC(OC(=O)c1cccs1)C(=O)NCc1ccco1 (stereo not drawn) | -37 | 3871 | 0 | 7 | 6 | 2 | 4.5
O=C(NC(=S)NNS(=O)(=O)c1ccccc1)c1ccccc1[N+](=O)[O-] | -16 | 2389 | 13 | -2 | 11 | 0 | 8.9
Nc1ccc(C(=O)C(=O)c2ccccc2)cc1 | -3 | . | 5 | -15 | 2 | 0 | 1.9
O=[N+]([O-])c1ccccc1COc1ccc(Cl)c2cccnc12 | -68 | 3499 | -1 | 15 | 6 | 6 | 0.6
Cc1cccc(C)c1OCC(O)CNS(=O)(=O)c1ccccc1C(=O)N1CCOCC1 (stereo not drawn) | -4 | 6371 | 9 | -3 | . | . | 0.8
Cc1cc(NC(=O)CSc2ccc(-c3ccc(F)cc3)nn2)no1 | -37 | 4138 | 4 | -1 | 7 | 7 | 3.5
O=C1CCC(=O)N1c1nc2nc(-c3ccccc3)cc(=O)n2[nH]1 | -27 | 2389 | 0 | -2 | 6 | 3 | 4.2
Cc1cc(C)n2nc(CC(=O)NNC(=O)COc3ccccc3)nc2n1 | -5 | 5016 | 7 | 6 | 9 | 3 | 5.1
CCc1c(C(=O)NC2CCCC2)csc1C | -6 | 16104 | -2 | 5 | 12 | -1 | -1.6
CC(C)NC(=O)Nc1ccc2c(c1)C(=O)N([C@H](C)CO)C[C@H](C)[C@@H](CN(C)C(=O)NC1CCCCC1)O2 | -19 | 2892 | 0 | . | 9 | 5 | -15
Cc1cc(NC(=O)c2cc([N+](=O)[O-])ccc2Cl)no1 | -6 | 3882 | -1 | 3 | 3 | -3 | -0.4
COc1ccc2sc(N3C(=O)C4CC=C(C)CC4C3=O)nc2c1 (stereo not drawn) | -20 | 5992 | 11 | 11 | 14 | 7 | 3.8
